Kir21 inh = inhibitors of mouse Kir2.1 inward-rectifier potassium channel; HEK293-Kir2.1, FluxOR thallium flux fluorescence; stronger effect = lower value; B-score at 10 µM; actives 0.85% (n = 310,000);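 active means fluorescence ratio B-score at or below minus 3 SD of library scores, with starting-brightness B-score within 2 SD, cut at about -4.2 in these data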;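 further: channel flux triggered by added potassium and thallium sulfate stimulus; B-score of peak minus minimum fluorescence over baseline after thallium stimulus; more negative B-score means stronger Kir2.1 block with less thallium influx; some compounds called inactive have numbers as strong as hits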
Target sequence (P35561 whole entry, looked up): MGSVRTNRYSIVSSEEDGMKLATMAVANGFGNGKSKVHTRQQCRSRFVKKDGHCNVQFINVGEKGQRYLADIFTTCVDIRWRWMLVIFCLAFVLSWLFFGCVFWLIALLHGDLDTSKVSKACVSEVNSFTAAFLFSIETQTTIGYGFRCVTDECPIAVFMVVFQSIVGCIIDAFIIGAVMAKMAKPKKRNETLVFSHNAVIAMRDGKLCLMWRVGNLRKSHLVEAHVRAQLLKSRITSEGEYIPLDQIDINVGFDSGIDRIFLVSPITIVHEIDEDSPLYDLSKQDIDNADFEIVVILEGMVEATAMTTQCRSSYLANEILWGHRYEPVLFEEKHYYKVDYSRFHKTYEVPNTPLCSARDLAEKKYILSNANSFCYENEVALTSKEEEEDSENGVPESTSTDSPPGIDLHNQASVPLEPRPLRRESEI
Starred values were filed as active, the others as inactive. An excerpt, and most or all hits are left out here.

# | SMILES | Kir21 inh
1 | O=C(NC1=C(Nc2ccc(F)cc2)C(=O)c2ccccc2C1=O)c1ccc(Cl)cc1 | -0.81
2 | CCOC(=O)CSc1nnc(-c2ccccc2)c(-c2ccccc2)n1 | -0.33
3 | CCOc1ccccc1C(=O)N1CCOCC1 | -0.77
4 | CC(=O)C1=C(O)C(=O)N(CCC(=O)O)C1c1ccccc1[N+](=O)[O-] (stereo not given) | 0.99
5 | CC(C)(C)NC(=O)C(c1cccs1)N(C(=O)C(=O)NC1CCCC1)c1ccccc1F (stereo not given) | 1.07
6 | O=C(NC1CCCC1)C(c1ccccn1)N(C(=O)c1csnn1)c1ccccc1 (stereo not given) | 0.5
7 | CSc1nc(NC(C)(C)C)nc(Oc2ccc(=O)[nH]n2)n1 | 1.87
8 | O=C(/C=C\c1cccs1)c1c(O)ccc2ccc(=O)oc12 | -1.39
9 | CCOc1ccc(NC(=O)COC(=O)c2cc([N+](=O)[O-])ccc2N2CCOCC2)cc1 | -0.98
10 | O=C(CSc1nc(-c2ccco2)cc(C(F)(F)F)n1)Nc1cccnc1 | -0.27
11 | CCCCNc1nc2c(-c3ccccc3)nnn2c2ccccc12 | 0.59
12 | COc1ccc(C(=O)Nc2ccccc2C(=O)Nc2ccccc2C(=O)O)cc1 | 0.51
13 | C=CCSc1nnc2c(n1)OC=Nc1ccc(Br)cc1-2 | -0.54
14 | COc1cc(OC)cc(C(=O)NCCSc2c[nH]c3ccccc23)c1 | 0.4
15 | Cc1c(NC(=O)CN2CCCc3ccccc32)c(=O)n(-c2ccccc2)n1C | 1.88
16 | COc1ccccc1N1CCN(C(=O)CCCn2nc(C)c([N+](=O)[O-])c2C)CC1 | 0.56
17 | CC1=C(C(=O)Nc2ccccc2C(F)(F)F)C(c2sccc2C)NC(=S)N1 (stereo not given) | -1
18 | C=CCn1c(CNC(=O)c2ccccc2F)nnc1SCc1nc2ccccc2c(=O)[nH]1 | 0.3
19 | NC(=S)Nc1cc(Cl)cc(Cl)c1 | -1.12
20 | CS(=O)(=O)N1CCc2cc(C(=O)NC3CC3)ccc21 | 0.79
21 | N#C/C(=C\c1ccc(OC(F)F)cc1)C(=O)N1CCCCC1 | -0.52
22 | Cc1ccc(NC(=O)c2cc(-c3ccc(C)o3)nc3ccccc23)nc1 | 0.69
23 | CCCCn1c(SCC(=O)c2ccc(OC)c(OC)c2)nc2cc(S(N)(=O)=O)ccc21 | -0.59
24 | O=C(/C=C/c1ccccc1Cl)Nc1cccc(S(=O)(=O)NC2=NCCCCC2)c1 | 0.33
25 | CCCc1cc(C(=O)N/N=C/c2ccc(CC)s2)c2ccccc2n1 | -0.31
26 | S=c1[nH]nc(-c2cccnc2)n1/N=C/c1ccc(Br)s1 | -0.58
27 | Cc1ccc(OCC(=O)N2CCC(N3CC(C)CC(C)C3)CC2)cc1 (stereo not given) | 0.33
28 | Cc1ccc(N(CC(=O)NCCc2ccccc2)S(=O)(=O)c2c(C)noc2C)cc1 | 0.09
29 | O=C(NCCOc1ccc(Cl)cc1)C(=O)NCC1CCCO1 (stereo not given) | 2.1
30 | COC(=O)C1=C(N)Oc2cc(C)n(CCCn3ccnc3)c(=O)c2C1c1cccc(Cl)c1 (stereo not given) | -2.05
31 | Cc1cccc(C2c3[nH]c4ccccc4c3CCN2C(=O)c2noc3c2CCCC3)n1 (stereo not given) | 0.29
32 | CC(C)C(NC(=O)c1ccccc1)C(=O)NC1=NCCS1 (stereo not given) | 1.48
33 | CCCNC(=O)COc1ccccc1[N+](=O)[O-] | 1
34 | O=C(Nc1cccnc1)c1ccc(N2CCCC2)c([N+](=O)[O-])c1 | -1.38
35 | O=C(C1CCCO1)N1CCN(C(=S)Nc2ccc(F)c(Cl)c2)CC1 (stereo not given) | -0.69
36 | Cc1cccc(C)c1NC(=O)CNC(=O)Cn1nc(C)c(C)c(C#N)c1=O | -0.86
37 | Cc1ccc2nc3c(cc2c1)c(NC(=O)c1cccnc1)nn3C | 1
38 | CCOC(=O)c1ccc(N/C=C2\CCCCC2=O)cc1 | 0.53
39 | O=C(NN=C1CCCCC1)c1ccccc1OCc1ccc(F)cc1 | -2.33
40 | O=C(Cc1ccccc1)NCC(=O)Nc1cccc(Cl)c1 | 1.65
41 | CCN(C(=O)c1c(C)cc(=O)oc1C)c1ccc2c(c1)OCO2 | 0.55
42 | COc1ccc2nc(NNC(=O)C3COc4ccccc4O3)sc2c1 (stereo not given) | 0.51
43 | O=C(c1ccc(Cn2cnnn2)cc1)N1CCCC(Nc2ccc(F)cc2)C1 (stereo not given) | -3.17
44 | Cc1cccc(C)c1N1CCN(S(=O)(=O)N2CCOCC2)CC1 | -1.56
45 | O=C(/C=C/c1ccc(Cl)cc1)N1CCN(c2ccc([N+](=O)[O-])c(N3CCOCC3)c2)CC1 | 0.32
46 | CCCC(C(=O)NCC1CCCO1)N(Cc1ccco1)C(=O)CNS(=O)(=O)c1ccc(F)cc1 (stereo not given) | -0.18
47 | COc1cccc(NS(=O)(=O)c2cc(C)sc2C)c1 | -0.96
48 | COc1ccc(N2CCN(C(=O)CC(C)S(=O)(=O)c3ccc4c(c3)NC(=O)CO4)CC2)cc1 (stereo not given) | -0.19
49 | CN(CC(=O)Nc1cccc(F)c1)C(=O)c1ccc(-c2ccc(Cl)cc2)o1 | -0.05
50 | COc1ccc(C2=NC(c3ccccc3)CO2)cc1 (stereo not given) | 0.55

Next section.
# | SMILES | Kir21 inh
51 | O=C(O)c1ccc2nc3c(nc2c1)-c1ccccc1C3=O | -0.78
52 | COc1ccc(CCN(C)CCCN2CC(c3ccccc3)CC2=O)cc1OC (stereo not given) | 0.3
53 | O=C(CN1CCN(Cc2ccccc2)CC1)Nc1ccc(N2CCOCC2)cc1 | -0.13
54 | Cc1ccc(Nc2nc(/N=C/N(C)C)n[nH]2)cc1C | -0.8
55 | COc1ccc(S(=O)(=O)CCC(=O)N2CCN(c3ccc(C(C)=O)cc3)CC2)cc1 | -0.16
56 | CCC(=O)N1CCN(c2ccccc2NC(=O)Cc2ccc(Cl)cc2)CC1 | -1.66
57 | CCCCOC(=O)N1CCOCCOCCN(C(=O)OCCCC)CCOCCOCC1 | 0.04
58 | Cc1ccc(C)c(N(CC(=O)N2CCCCCC2)S(C)(=O)=O)c1 | 1.24
59 | O=C(N/C(=C/c1cccc(Br)c1)c1nc(=S)[nH][nH]1)c1ccccc1 | 0.53
60 | Cc1cc2ccccn2c1C(=O)Nc1ccc(Cl)cc1 | -0.17
61 | COc1cc(S(=O)(=O)N(Cc2ccccn2)Cc2ccccc2Cl)ccc1-n1cnnn1 | -0.03
62 | COc1cccc(/C=C2\Oc3cc(OCC(=O)N4CCCCC4)ccc3C2=O)c1OC | 0.54
63 | O=C1CC(c2cccc(Br)c2)c2cc3c(cc2N1)CCC3 (stereo not given) | -0.05
64 | CCOC(=O)/C(=N\Nc1ncnc2ccccc12)c1ccc(OC)cc1 | 1.9
65 | Cc1ccccc1NC(=O)c1ccc(C)c(S(=O)(=O)Nc2ccccn2)c1 | -0.01
66 | c1ccc2c(c1)Oc1cccc3cccc-2c13 | -0.9
67 | N#Cc1c2n(c(=S)n(-c3ccc(F)cc3)c1=O)CCCCC2 | 0.05
68 | COCCC(=O)N1CCC(Oc2ccc(C(=O)N3CCC(N(C)C)C3)cc2)CC1 (stereo not given) | 2.14
69 | Cc1ccc(S(=O)(=O)N2CCOCC2)cc1NC(=O)CNCc1ccccn1 | 0.04
70 | COc1ccc(/C=N\NC(=O)c2ccccc2)cc1COc1ccccc1 | -1.88
71 | CC(C)(C)c1ccc(S(=O)(=O)NNC(=O)C2CCN(Cc3cccc(F)c3)CC2)cc1 | -1.29
72 | Cc1cc(C(=O)COC(=O)c2cccnc2Cl)c(C)n1-c1c(C)n(C)n(-c2ccccc2)c1=O | -0.55
73 | Cc1cccc(-n2c3nc(=O)[nH]c(=O)c-3cc3cc([N+](=O)[O-])ccc32)c1 | 0.06
74 | O=S(=O)(Cc1ccccc1)N1CCCC1 | -0.3
75 | Cc1ccc2cccc(OCc3ccc(F)cc3)c2n1 | 0.09
76 | Cc1ccc(-c2nnn(CC(=O)NCCC3=CCCCC3)n2)cc1 | 1.69
77 | O=C(CCn1nnc2ccccc21)Nc1nnc(Cc2ccccc2)s1 | 2.09
78 | CC(C)NS(=O)(=O)c1ccc(OCC(=O)NCc2cccnc2)cc1 | -2.23
79 | Cc1nc(-c2ccc(S(=O)(=O)Nc3cccc(S(N)(=O)=O)c3)s2)cs1 | 1.16
80 | O=c1c2ccccc2cnn1Cc1n[nH]c(=S)n1-c1ccc(Cl)cc1 | 0.27
81 | COc1ccc(C(=O)Nc2nc(C)c(C(=O)N(C)C)s2)cc1OC | -1.82
82 | O=C1CSC(c2cn(-c3ccccc3)nc2-c2cc3ccccc3o2)N1Cc1ccccc1 (stereo not given) | -0.74
83 | COc1ccc(C(C(=O)NCC2CCCO2)N(C(=O)Cn2nnc3ccccc32)c2ccccc2C(C)=O)cc1OC (stereo not given) | 0.26
84 | CCOCCCNC(=O)C(NC(=O)Cc1cccs1)c1ccccc1 (stereo not given) | -0.9
85 | CC(=O)Nc1ccc(S(=O)(=O)NC(C(=O)O)C(C)O)cc1 (stereo not given) | 0.68
86 | CCn1c(SCC(=O)NC(=O)NC(C)(C)C)nc2ccccc21 | 0
87 | COc1ccc(OCC(=O)Nc2ccc3c(c2)nc(CN2CCCC2)n3C)cc1 | 1.29
88 | Cc1ccc2nc(SCC(=O)Nc3ccc4c(c3)CCC4)[nH]c2c1 | -2.2
89 | CN(C)c1ccc(-c2nc3ccccc3c(=O)[nH]2)cc1 | -1.37
90 | O=S(=O)(c1ccc(Cl)cc1)N1CCN(C2CCCCCC2)CC1 | 1.5
91 | COc1ccc(C2=CC(=O)CC(c3ccccc3)C2)cc1 (stereo not given) | -0.99
92 | O=S(=O)(NCC1CCCO1)c1ccc(Br)s1 (stereo not given) | 2.89
93 | Cc1nc2cc(NC(=O)c3ccc([N+](=O)[O-])s3)ccc2s1 | -0.12
94 | CC(NS(=O)(=O)/C=C/c1ccccc1)C(=O)O (stereo not given) | 0.14
95 | CCOC(=O)C1=C(c2ccccc2)NC(N)=NC1c1ccc(OCc2ccc(Cl)cc2)c(OC)c1 (stereo not given) | -3.14
96 | Cc1cccc(NC(=O)Nc2ccc(Br)cc2)n1 | -0.02
97 | Cc1ccc2nc(NC(=O)C3CCN(S(=O)(=O)c4cccnc4)CC3)sc2c1 | -2.02
98 | CC(C)(C)NS(=O)(=O)c1cccc2nsnc12 | -0.37
99 | COc1cc(OC)nc(NC(=S)NC(=O)c2ccccc2)n1 | -0.34
100 | Cc1ccc(CN(C(=O)c2ccc([N+](=O)[O-])cc2)C2CCS(=O)(=O)C2)o1 (stereo not given) | 0.59

Exported as labelled records: entries from further up.
[95] CCOC(=O)C1=C(c2ccccc2)NC(N)=NC1c1ccc(OCc2ccc(Cl)cc2)c(OC)c1 (stereo not given)
  Kir21 inh: -3.14

[96] Cc1cccc(NC(=O)Nc2ccc(Br)cc2)n1
  Kir21 inh: -0.02

[97] Cc1ccc2nc(NC(=O)C3CCN(S(=O)(=O)c4cccnc4)CC3)sc2c1
  Kir21 inh: -2.02

Next part.
# | SMILES | Kir21 inh
101 | CCOC(=O)Cn1cnc(-c2ccc([N+](=O)[O-])cc2)c1 | -0.16
102 | O=C(O)c1cccc(NC(=O)c2ccc(N3C(=O)c4ccc(C(=O)Nc5cccc(C(=O)O)c5)cc4C3=O)cc2)c1 | 0.06
103 | Cc1ccc(NC(=O)CCN2C(=O)c3ccccc3S2(=O)=O)cc1C | 1.85
104 | Cc1cc(C)c(S(=O)(=O)NCc2csc(C)n2)c(C)c1 | -3.95
105 | COc1cc(CNC(=O)c2ccc(Cn3nc(C)c(Cl)c3C)o2)cc(OC)c1 | -0.3
106 | COc1ccc(OC)c(S(=O)(=O)Nc2cccc3c(O)cccc23)c1 | 0.15
107 | Cc1sc(N)nc1C12CC3CC(CC(C3)C1)C2 | -0.56
108 | CCOC(=O)C(NC(C)=O)C(=O)Nc1ccc(C(C)C)cc1 (stereo not given) | 0.78
109 | COCCNC(=O)COc1ccc(C)c(C)c1 | 0.22
110 | COCCNC(=O)C(NC(=O)C1CCC(C)CC1)C(C)C (stereo not given) | 0.75
111 | O=C(N/N=C/c1cc([N+](=O)[O-])c(N2CCOCC2)cc1N1CCOCC1)c1cccnc1 | 0.96
112 | OC1CC(c2ccco2)NC2(CCCCC2)C1 (stereo not given) | 0.48
113 | COc1cccc2sc(N(CCN(C)C)C(=O)c3ccc(S(=O)(=O)N4CCCC4)cc3)nc12 | 0.02
114 | Cn1c(=O)c2c(nc(N3CCN(Cc4ccccc4)CC3)n2CC(=O)c2ccccc2)n(C)c1=O | 0.02
115 | CS(=O)(=O)N1CCN(c2ccc([N+](=O)[O-])c(NCc3ccccc3)c2)CC1 | 0.18
116 | CC1CCCN(C(=O)C(=O)Nc2ccc3nc4n(c(=O)c3c2)CCCCC4)C1 (stereo not given) | -0.07
117 | O=C(NC(=S)N1CCN(Cc2ccccc2)CC1)c1ccco1 | -0.18
118 | CN(C(=O)c1cccn(Cc2ccccc2)c1=O)c1ccccc1 | -0.78
119 | COC(=O)C1CSC(C(=O)OC)N1C(=O)Nc1ccc(Cl)c(Cl)c1 (stereo not given) | 0.01
120 | COc1ccc(/C=C2\SC(=O)N(CC(=O)NCCC(C)C)C2=O)cc1OC | 0.22
121 | CC(C)c1nc2sc3c(NCc4ccccc4)ncnc3c2c2c1COC(C)(C)C2 | -1.44
122 | CC1CN(S(=O)(=O)c2ccc(C(=O)Nc3ccc(S(=O)(=O)Nc4nccs4)cc3)cc2)CC(C)O1 (stereo not given) | -0.34

Arranged by SMILES length (falling): three of the compounds above.
# | SMILES | Kir21 inh
115 | CS(=O)(=O)N1CCN(c2ccc([N+](=O)[O-])c(NCc3ccccc3)c2)CC1 | 0.18
106 | COc1ccc(OC)c(S(=O)(=O)Nc2cccc3c(O)cccc23)c1 | 0.15
110 | COCCNC(=O)C(NC(=O)C1CCC(C)CC1)C(C)C (stereo not given) | 0.75

Structures above with a cyano group, in the order listed:
# | SMILES | Kir21 inh
21 | N#C/C(=C\c1ccc(OC(F)F)cc1)C(=O)N1CCCCC1 | -0.52
36 | Cc1cccc(C)c1NC(=O)CNC(=O)Cn1nc(C)c(C)c(C#N)c1=O | -0.86
67 | N#Cc1c2n(c(=S)n(-c3ccc(F)cc3)c1=O)CCCCC2 | 0.05
